INS promoter inh – inhibitors of insulin promoter-driven GFP, primary screen, imaging, TRM-6 cells (human fetal islet line), eGFP reporter, cell count. reporter expression induced with tamoxifen. inhibition, % at 2 µM. 130,000 compounds, 0.9% hits;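 active = inhibition above the mean plus 3 SD, with well images judged a real hit on visual review, cut at about 60% in these data, passing the limit was not always enough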
RGS16-Gao HTS – modulators of RGS16 binding to Galphao, primary screen, biochemical, human proteins, multiplexed bead flow cytometry. Regulator of G-protein signaling 16 (Homo sapiens) + Guanine nucleotide-binding protein …. bead-based flow cytometry RGS16-Galphao binding, fluorescence; actives lie on both sides. binding response (% of control), % at 10 µM. 220,000 compounds, 0.38% hits. AID 1441, 2008;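 active = below 25% or above 175%, edge rows of some plates excepted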;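 also: Galphao activated by GDP with aluminum fluoride before binding; 100% = wells without compound and 0% = beads without RGS; some results beyond the cut were filed as inactive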
Target sequence (O15492 whole entry, looked up): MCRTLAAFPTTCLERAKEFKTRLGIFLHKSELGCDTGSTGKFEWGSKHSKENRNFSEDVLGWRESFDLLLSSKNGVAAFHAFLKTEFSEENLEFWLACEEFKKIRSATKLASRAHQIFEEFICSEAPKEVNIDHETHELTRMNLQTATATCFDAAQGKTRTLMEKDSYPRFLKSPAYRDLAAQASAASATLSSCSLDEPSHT
Target sequence (P09471 whole entry, looked up): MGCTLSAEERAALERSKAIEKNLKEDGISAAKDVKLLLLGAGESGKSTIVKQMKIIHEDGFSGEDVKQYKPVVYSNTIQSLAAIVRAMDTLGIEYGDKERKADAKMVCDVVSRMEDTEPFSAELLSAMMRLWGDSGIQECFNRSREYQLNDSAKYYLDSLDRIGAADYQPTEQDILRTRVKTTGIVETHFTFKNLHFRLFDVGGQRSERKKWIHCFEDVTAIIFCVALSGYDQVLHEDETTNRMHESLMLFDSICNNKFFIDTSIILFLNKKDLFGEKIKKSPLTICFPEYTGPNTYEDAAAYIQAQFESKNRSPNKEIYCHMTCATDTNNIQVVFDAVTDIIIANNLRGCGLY
GALR2 agonist – GALR2 receptor agonists, primary screen, cell-based; Galanin receptor type 2 (Homo sapiens), O43603; GALR2-expressing cells, agonist activation read-out; activation, %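 (tested at 5 µM)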; 140,000 compounds, 0.48% hits;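 active = above mean plus 3 SD of all compounds, about 5% in these data, not always enough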;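 also: 0% = vehicle buffer wells and 100% = reference agonist at full effect; tested in CHO reporter cells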
Target sequence (O43603 whole entry, looked up): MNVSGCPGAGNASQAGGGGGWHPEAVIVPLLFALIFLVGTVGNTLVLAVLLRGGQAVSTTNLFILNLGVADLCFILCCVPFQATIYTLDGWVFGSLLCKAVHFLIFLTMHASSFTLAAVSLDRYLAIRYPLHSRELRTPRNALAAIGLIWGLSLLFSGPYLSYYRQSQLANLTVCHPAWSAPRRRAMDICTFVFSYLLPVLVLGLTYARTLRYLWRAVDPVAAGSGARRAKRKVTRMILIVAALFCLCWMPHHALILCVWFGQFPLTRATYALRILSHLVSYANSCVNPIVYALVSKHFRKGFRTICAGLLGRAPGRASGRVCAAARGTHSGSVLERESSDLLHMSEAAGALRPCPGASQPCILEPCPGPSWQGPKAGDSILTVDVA
PKD1 inh – inhibitors of human PKD1 kinase, biochemical, fluorescence polarization; Serine/threonine-protein kinase D1 (Homo sapiens), Q15139; PKD1 kinase fluorescence polarization assay; inhibition, %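 (about 10 µM by stock and volumes)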; 200,000 compounds, 0.056% hits; AID 797, 2007;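 active = inhibition of 50% or more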;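 also: controls were vehicle for no effect and a reference inhibitor for full effect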
HSV replic up – enhancers of HSV replication in host cells, fold increase, host cell viability; maximum fold increase; 220,000 compounds, 0.005% hits; AID 1956, 2009; HSV replication augmentation in cells;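 active = peak rise of 1.5-fold or more in the series; tested in PC3 cells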;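 also: first round at 10 µM; read as green reporter fluorescence; hits show the peak of a series up to 25 µM; 1 = signal of infected wells without compound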
INS promoter inh cell count – also measured in INS promoter inh; calls as there; normalized cell count, %; measured here: cell count, toxicity; reference of the scale not given here;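 cells exposed to compound for 48 h; stained nuclei by imaging scaled within each plate; lower means fewer cells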
HSV replic up primary fold – further read-out of HSV replic up, marked with its call; fold increase; compound at 10 µM; measured here: primary screen fold increase 10 uM; tested in PC3 cells;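 GFP signal in the first replicate; 1 = infected wells without compound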
An asterisk follows results filed as active; i = inactive; / = no result given.

SMILES	INS promoter inh	INS promoter inh cell count	RGS16-Gao HTS	GALR2 agonist	PKD1 inh	HSV replic up	HSV replic up primary fold
Cc1nn(-c2ccccc2)c(Cl)c1C(=O)NC1CCCCC1	2	92	111	/	-3	i	1
CCCCOc1ccc(C(=O)N/C(=C/c2cccc([N+](=O)[O-])c2)C(=O)O)cc1	/	/	101	/	3	i	0.98
COc1ccc(S(=O)(=O)n2nc(OC(=O)C3CCCCC3)cc2N)cc1	21	110	101	-0.5	-4	i	0.96
CCCCn1c(Oc2ccc(C(=O)OC)cc2)nc2c1c(=O)n(C)c(=O)n2C	52	88	33	0.2	-15	i	0.76
CC1CN(CC(=O)NN=C(c2ccccc2)c2ccccc2)CC(C)O1 (stereo not given)	/	/	97	/	2	i	1.1
Cc1ccccc1C(=O)c1c[nH]c(C(=O)N=CN(C)C)c1	/	/	106	/	-4	i	0.98
O=C(NCC1COc2ccccc2O1)C1CCN(S(=O)(=O)c2cccc3nsnc23)CC1 (stereo not given)	-50	117	99	0.8	-16	i	0.91
CCN(CC)S(=O)(=O)c1ccc2c(c1)c(=O)c(C(=O)NCCN(C)CCc1ccccc1)cn2C	/	/	101	-2.1	-7	i	0.73
COc1ccc(C(=O)N2CCOCC2)cc1Br	-29	269	96	-2.8	-2	i	0.82
CC(C)CNC(=O)C(=O)N/N=C/c1cccs1	/	/	103	-1.9	-2	i	0.91
CO/N=C/C(C#N)=C/c1ccc(OC)cc1	/	/	100	/	5	i	1.1
CCCSc1nnc2n(-c3ccccc3OC)c(=O)c3c4c(sc3n12)CCC4	-379	90	102	1.6	-2	i	0.93
O=C(Cn1c(S(=O)(=O)Cc2ccccc2)nc2ccccc21)N1CCCCC1	/	/	103	-2.4	1	i	0.97
CC(C)C(NCc1c(Cl)cccc1Cl)C(=O)O (stereo not given)	/	/	106	-0.7	11	i	0.9
CCn1c(Cc2c(C)[nH]c3ccccc23)nnc1SCC(=O)NCc1ccccc1	23	81	98	-0.2	0	i	1
CCOC(=O)C1=C(C)N(C)C(C)=C(C(=O)OCC)C1c1ccccn1	/	/	256	-2.0	6	i	0.96
O=C(CCCCCn1c(=S)[nH]c2cc3c(cc2c1=O)OCO3)N1CCN(C(=O)c2ccco2)CC1	-19	47	92	-0.2	-5	i	0.87
CC1CN(S(=O)(=O)c2ccc(C(=O)Nc3nnc(-c4ccccn4)o3)cc2)CC(C)O1 (stereo not given)	10	147	9.5*	/	0	i	0.97
COc1cc([N+](=O)[O-])ccc1NC(=O)CCCOc1cccc(C)c1C	17	115	83	-2.1	12	i	1.5
COC(=O)CSc1nsc(SCC(=O)OC)c1C#N	1	90	102	-1.9	0	i	0.85
O=C(Nc1ccc(Cc2ccncc2)cc1)c1ccc(N2CCOCC2)c([N+](=O)[O-])c1	/	/	98	/	-6	i	1
COc1cc(/C=N/Nc2cc(C)nc(NS(=O)(=O)c3ccccc3)n2)ccc1O	/	/	98	/	/	i	0.78
O=c1[nH]ncn1-c1cccc(C(F)(F)F)c1	14	90	96	1.6	-11	i	0.75
COc1cccc2c(=O)n(CC(=O)Nc3ccccc3)ccc12	/	/	60	-1.6	8	i	1
Cc1c(NC(=O)COC(=O)C2(c3ccc(F)cc3)CCCC2)c(=O)n(-c2ccccc2)n1C	/	/	92	/	-5	i	1
Further records
SMILES	INS promoter inh	INS promoter inh cell count	RGS16-Gao HTS	GALR2 agonist	PKD1 inh	HSV replic up	HSV replic up primary fold
O=C(O)c1cc(-c2ccc3c(c2)OCO3)nc2ccccc12	13	104	96	-1.9	-2	i	0.82
Cc1cc(OCCCC(=O)NC2=NCCS2)ccc1Cl	16	26	105	-3.0	-2	i	1
Cc1c(CCC(=O)O)c(=O)oc2cc3oc4c(c3cc12)CCCC4	/	/	99	/	/	i	1.1
Cc1c(C(=O)Nc2cccc3cccnc23)oc2ccccc12	-100	130	94	-0.2	10	i	0.96
CCc1cc2c(=O)n(CC)c(SC(C)C(=O)Nc3c(C)n(C)n(-c4ccccc4)c3=O)nc2s1 (stereo not given)	54	113	105	-0.6	-4	i	0.85
OC(c1cc(C(F)(F)F)nc2c(Cl)cc(Cl)cc12)C1CCCCN1 (stereo not given)	/	/	103	/	/	i	0.82
CS(=O)(=O)Nc1ccccc1C(=O)c1ccccc1	8	110	103	-1.4	-2	i	0.88
Cc1nn2c(NCC(C)C)c3c(nc2c1-c1ccccc1)CCC3	-11	140	80	-2.7	-7	i	1.1
CCCCNC(=O)CN(c1ccc(Cl)c(Cl)c1)S(C)(=O)=O	-50	115	55	-1.3	-1	i	0.98
Cc1cc(C)n(-c2cc(N3CCN(S(=O)(=O)c4ccc5ccccc5c4)CC3)ccc2[N+](=O)[O-])n1	-23	98	107	-3.3	4	i	1.1
Nn1c(SCC(=O)NCc2ccccc2)nnc1C1CC1	-30	104	100	-2.8	-2	i	1
CC(C)/C(=N\NC(=O)Nc1ccccc1)c1ccccc1	20	70	102	-2.9	-3	i	0.93
Cc1c(NC(=O)CSc2nnc(-c3ccncc3)o2)c(=O)n(-c2ccccc2)n1C	36	123	103	/	2	i	0.96
Cc1ccc(CN(Cc2ccc(C)o2)C(=S)NCC(=O)O)cc1	/	/	107	-1.0	-15	i	0.95
COC(=O)c1c(N)sc(Cc2ccccc2)c1C	/	/	103	/	-11	i	0.96
N/C(=N\OC(=O)c1ccc(Cl)cc1Cl)c1ccc(Cl)cc1	-13	68	99	-2.1	7	i	1
COc1ccc(CNC(=O)C(c2cccs2)N(C(=O)c2csnn2)C2CC2)cc1 (stereo not given)	18	92	95	-0.1	9	i	0.9
O=C(O)CS(=O)(=O)CC(=O)NCc1cccc(C(F)(F)F)c1	6	89	97	/	-3	i	1.1
C=CCN1C(C(=O)c2ccccc2)=C(OC(=O)COc2ccccc2)c2ccccc2S1(=O)=O	-7	107	102	0.2	3	i	1
CCOC(=O)c1cccc(NC(=O)CCn2nnc3ccccc32)c1	-97	101	107	-2.1	3	i	0.87
COc1cc(O)c2c(c1)OC(c1ccc(O)cc1)CC2=O (stereo not given)	/	/	95	/	7	i	0.84
Cc1onc(-c2ccccc2Cl)c1C(=O)NC(=S)NCc1cccnc1	29	81	103	/	7	i	1.1
COc1cc(NC(=S)NC2CC(C)(C)NC(C)(C)C2)cc(OC)c1	33	110	101	/	-2	i	0.99
CCC(=O)N1CCN(c2ccc(Cl)cc2NC(=O)c2ccc(Br)o2)CC1	7	74	/	-4.0	0	i	0.75
COc1ccccc1N1CCN(C(=O)c2ccc3nc(-c4ccco4)c(-c4ccco4)nc3c2)CC1	43	108	96	1.8	0	i	0.7

Three compounds from above, ordered by formula weight, rising.
SMILES	INS promoter inh	INS promoter inh cell count	RGS16-Gao HTS	GALR2 agonist	PKD1 inh	HSV replic up	HSV replic up primary fold
COC(=O)c1c(N)sc(Cc2ccccc2)c1C	/	/	103	/	-11	i	0.96
Cc1nn2c(NCC(C)C)c3c(nc2c1-c1ccccc1)CCC3	-11	140	80	-2.7	-7	i	1.1
O=C(O)CS(=O)(=O)CC(=O)NCc1cccc(C(F)(F)F)c1	6	89	97	/	-3	i	1.1

Further entries
SMILES	INS promoter inh	INS promoter inh cell count	RGS16-Gao HTS	GALR2 agonist	PKD1 inh	HSV replic up	HSV replic up primary fold
O=c1/c(=C/c2ccc(O)cc2)sc2n1CCCN=2	41	79	103	-2.1	-4	i	1
COc1cc(S(=O)(=O)NC2CCCC2)c(OC)cc1Cl	27	93	104	1.6	0	i	1.1
Nc1ccc(Sc2nnnn2-c2ccccc2)c(Cl)c1	50	168	100	-1.6	-6	i	0.99
CN1CCc2c(sc(/N=C/c3cc(Cl)ccc3O)c2C#N)C1	/	/	100	/	/	i	1
COCCNC(=O)CCCn1c(=O)c2cc(OC)c(OC)cc2n(CC(=O)c2ccc(Cl)cc2)c1=O	25	90	101	/	-4	i	0.93
O=C(NC1CCCC1)C1C2C=CC(C2)C1C(=O)N1CCOCC1 (stereo not given)	20	90	98	-1.7	3	i	0.99
CCCC(=O)OCC(=O)Nc1ccc2c(c1)OCO2	/	/	104	/	5	i	0.99
COc1cc(Cl)cc(C#N)c1OCC(=O)O	-19	167	101	-1.4	-8	i	0.78
CCOC(=O)Cc1csc(NC(=O)c2ccc(Br)s2)n1	-10	135	99	-2.1	-1	i	1
O=C(O)C1C2CCC(O2)C1C(=O)Nc1cccc(F)c1 (stereo not given)	-52	107	128	-2.0	-10	i	1
Cc1cc(C(=O)NCC(=O)OC(C(=O)Nc2cc(C(F)(F)F)ccc2Cl)c2ccccc2)ccc1[N+](=O)[O-] (stereo not given)	10	125	104	-2.6	-4	i	0.97
CCN(CC)c1ccc(/C=N/Nc2nc3ccccc3[nH]2)cc1	47	58	107	4.2	-6	i	0.5
CC(C)C(=O)Nc1nnc(Cc2c[nH]c3ccccc23)s1	/	/	104	/	/	i	1
COCc1nnc(NC(=O)CCCCCN2C(=O)c3ccccc3C2=O)s1	42	68	112	-0.8	-8	i	1.1
CCCc1nnc(SCC(=O)N2CCCC2)n1CC1CCCO1 (stereo not given)	/	/	96	-1.0	-9	i	1
O=C(CCC(=O)Nc1ccccc1)NNC(=O)c1cccs1	/	/	101	-1.4	6	i	0.67
CN1CCN(c2nc(-c3ccncc3)nc3ccccc23)CC1	3	89	103	-1.6	-1	i	0.72
COc1ccc(Cn2c(C)nnc2-c2cnn(C)c2N)cc1	53	76	101	/	-1	i	0.88
CC(C)OC(=O)c1nnn(-c2nonc2N)c1CSc1ccccn1	-36	119	97	0.2	-3	i	0.75
CC(C)N(Cc1ccccc1)C(=O)COC(=O)/C=C/c1cnc2ccccc2n1	/	/	98	/	6	i	0.91
Cc1cccc(OCC(=O)Nc2ncn[nH]2)c1C	/	/	100	/	/	i	0.86
Cc1ncc(CO)c2cc(-c3nnc(Nc4ccc5c(c4)OCO5)s3)c(=O)oc12	/	/	99	/	/	i	0.97
COc1cc2c(cc1OC)C(=O)N(C)CC2	/	/	103	/	6	i	1
O=C(Cc1c(F)cccc1Cl)N1CCOCC1	/	/	91	/	-3	i	0.99
COCc1cc(C)nc(SCC(=O)Oc2ccccc2)c1C#N	/	/	99	/	1	i	0.85

Record cards, from the list above:
Results for `COCc1nnc(NC(=O)CCCCCN2C(=O)c3ccccc3C2=O)s1` → INS promoter inh = 42; INS promoter inh cell count = 68; RGS16-Gao HTS = 112; GALR2 agonist = -0.8; PKD1 inh = -8; HSV replic up = i; HSV replic up primary fold = 1.1
Results for `COc1cc2c(cc1OC)C(=O)N(C)CC2` → INS promoter inh = /; INS promoter inh cell count = /; RGS16-Gao HTS = 103; GALR2 agonist = /; PKD1 inh = 6; HSV replic up = i; HSV replic up primary fold = 1
Results for `COCCNC(=O)CCCn1c(=O)c2cc(OC)c(OC)cc2n(CC(=O)c2ccc(Cl)cc2)c1=O` → INS promoter inh = 25; INS promoter inh cell count = 90; RGS16-Gao HTS = 101; GALR2 agonist = /; PKD1 inh = -4; HSV replic up = i; HSV replic up primary fold = 0.93

Continuation.
SMILES	INS promoter inh	INS promoter inh cell count	RGS16-Gao HTS	GALR2 agonist	PKD1 inh	HSV replic up	HSV replic up primary fold
Cc1ccccc1OCCCCc1c(C)n[nH]c1C	-100	105	104	-0.1	-11	i	1
Cc1csc2c(N3CCCCC3)ncnc12	/	/	99	/	/	i	0.98
O=C(CCCCCCCCC(=O)N/N=C/c1ccco1)N/N=C/c1ccco1	31	84	117	-1.4	-2	i	1.1
C=C(C)CSc1nc2sc3c(c2c(=O)n1C1CCCCC1)CCN(C)C3	/	/	104	/	/	i	0.93
CCCC(=O)Oc1ccc2c(C)cc(=O)oc2c1	-17	58	110	0.4	1	i	1
CCN(C(=O)c1cc2cccc(OC)c2oc1=O)c1ccccc1	-34	135	92	-2.2	-6	i	1
O=C(O)CCCCNS(=O)(=O)/C=C/c1ccccc1	/	/	104	/	2	i	0.92
CCOc1ccc(/C=C/C(=O)Nc2ccc(N3CCOCC3)cc2)cc1	/	/	100	-3.4	4	/	/
CCN(Cc1nc2ccccc2c(=O)[nH]1)Cc1nc2cc(OC)c(OC)cc2c(=O)[nH]1	0	104	104	-0.7	-1	i	0.95
Cc1nnc(NCc2n[nH]c(=O)c3ccccc23)c2ccccc12	/	/	195	-1.0	-11	i	0.88
COc1ccc(-c2noc(-c3cccc(Cl)c3)n2)cc1OC	-106	144	98	-0.2	2	i	0.95
COCCNC(=S)N(C)C1(c2ccccc2Cl)CCCCC1=O (stereo not given)	/	/	94	/	-5	i	0.91
O=C(CCCCCCCC(=O)NCC1CCCO1)NCC1CCCO1 (stereo not given)	3	80	57	-1.1	-4	i	1
CCOc1cc(-c2nc(-c3cc(OC)c(OC)c(OC)c3)no2)cc(OCC)c1OCC	7	136	/	-3.0	-2	i	0.96
CCCOc1cccc(C(=O)Nc2cc(NC(=O)c3ccco3)ccc2OC)c1	9	81	103	-0.4	-4	i	0.95

Assay outcomes (PubChem)
